# High-throughput results (PubChem BioAssay)
# Beta2AR agonist – agonists of human beta-2 adrenergic receptor inducing internalization | P07550 | Am2.2-beta2AR cells, FAP receptor internalization, flow cytometry; reference of the scale not given here | response, % (concentration not given with the values) | 340,000 compounds, 0.43% hits | AID 504454;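 active means response above a set limit, near 3 SD of response in nonfluorescent compounds, cut at about 42% in these data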;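 further: stock transfer was 100 nL into about 11 µL; a reference agonist was the positive control; negative values mostly stem from fluorescent compounds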
# Target sequence (P07550 whole entry, looked up): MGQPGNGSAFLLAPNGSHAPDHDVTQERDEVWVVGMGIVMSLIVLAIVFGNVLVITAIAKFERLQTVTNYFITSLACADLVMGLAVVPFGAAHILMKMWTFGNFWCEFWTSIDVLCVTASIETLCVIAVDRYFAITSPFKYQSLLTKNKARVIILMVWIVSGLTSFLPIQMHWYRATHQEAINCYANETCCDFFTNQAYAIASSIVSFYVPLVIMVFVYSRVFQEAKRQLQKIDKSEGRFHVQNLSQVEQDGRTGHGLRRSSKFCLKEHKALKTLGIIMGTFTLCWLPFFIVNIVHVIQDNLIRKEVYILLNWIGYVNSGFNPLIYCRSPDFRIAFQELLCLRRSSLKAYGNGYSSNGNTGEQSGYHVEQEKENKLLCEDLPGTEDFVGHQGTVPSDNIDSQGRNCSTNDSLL
# Ecoli rRNA inh – selective bacterial rRNA inhibition in E. coli. AID 720706. GFP signal change (wild-type ribosome), % (no concentration beside the values). 350,000 compounds, 1.6% hits. E. coli WT GFP vs humanized-ribosome RFP mutants, fluorescence, 24 h; hits give low values; DMSO median 0, no signal -100;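 active means significant combined selectivity score with lowered wild-type GFP, culture density cut under 30%, mutant RFP and density less affected; inactive means any of these conditions unmet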; further: one replicate is shown; some compounds called inactive have numbers as strong as hits
# Beta cell apopt – blocks beta cell apoptosis. INS-1E cytokine-induced death, ATP luminescence, 48 h; percent of positive-control rescue, neutral wells zero. protection from apoptosis, % (no concentration beside the values). 300,000 compounds, 0.8% hits. AID 435005;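 active means all replicates at 75% or more, or half of them and the mean; inconclusive means half reach 75% but not the mean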;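 further: 0% = cytokine-treated negative control wells and 100% = positive control rescue; higher means more ATP so stronger rescue from cytokine killing; wells of about 40 µL received 100 nL stock; the first replicate is given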
# ALR H2O2 inh – blocks human ALR sulfhydryl oxidase activity; inhibition, % (no concentration beside the values); 290,000 compounds, 3.8% hits; purified ALR, DTT oxidation, H2O2 HRP-luminol luminescence; AID 485317; P55789;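 active means mean and each replicate at 75% or more; inconclusive means only one of the two met; inactive means neither met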;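 further: stock transfer was 7.5 nL into about 7.5 µL; 0% = neutral wells and 100% = wells with inactivated enzyme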
# Target sequence (P55789 whole entry, looked up): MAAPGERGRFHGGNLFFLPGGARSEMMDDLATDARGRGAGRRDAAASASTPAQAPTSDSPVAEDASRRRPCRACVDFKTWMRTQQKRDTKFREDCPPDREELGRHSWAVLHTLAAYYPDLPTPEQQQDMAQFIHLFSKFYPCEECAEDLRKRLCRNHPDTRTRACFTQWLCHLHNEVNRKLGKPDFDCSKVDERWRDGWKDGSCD
# Bfl-1 A1 inh – inhibitors of the anti-apoptotic protein A1, read as caspase activation. MEF A1-2A-BIM cells, Caspase-Glo 3/7 luminescence, 3 h; percent of clofoctol response, vehicle zero. caspase activation, % (test concentration not listed). 330,000 compounds, 0.066% hits. AID 2462;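 active means over half of replicate activation scores above 10%, or exactly half above 10 with the replicate mean above 10; inconclusive means replicate mean below 10 yet half the replicates above 10; inactive means over half of replicates below 10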;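 further: wells of about 30 µL received 50 nL stock; many hits fall short of the cut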
# T cruzi repl – T. cruzi replication inhibition; T. cruzi beta-gal in NIH3T3, luminescence, 90 h; inhibition, % (test concentration not listed); 300,000 compounds, 1.4% hits;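 active means mean inhibition across valid replicates above about 55%, limit read from the data; inconclusive means mean below that limit but half or more replicates reach it; inactive means mean below it, under half of replicates reach it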;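 further: signal also drops with host cell toxicity which is not excluded here; 0% = plate median of DMSO wells and 100% = zero luminescence signal; higher percent means less beta-gal luminescence so fewer parasites; stock transfer was 50 nL into about 50 µL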
# LANA-H2B inh – blocks KSHV LANA binding to histone H2A/H2B; cell-free LANA-H2A/H2B peptide, fluorescence polarization; inhibition, % (no concentration beside the values); 320,000 compounds, 0.6% hits; AID 2629; in the data active means inhibition mostly above about 10%, no sharp cut-off; inactive means mostly below about 6.7%;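 further: stock transfer was 7.5 nL into about 10 µL; 0% = median of vehicle wells and 100% = median of positive control wells; one replicate is shown; the record names a cut of 25% in any replicate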
# Calb FLC – C. albicans growth modulation with fluconazole | C. albicans CaCi-2 (fluconazole-resistant clinical isolate) + fluconazole, Alamar Blue growth, 48 h | growth inhibition, % (concentration not given with the values) | 300,000 compounds, 0.57% hits | AID 1979;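 active means most replicates above 75%; inconclusive means exactly half above 75%; inactive means most below 75%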;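 further: all wells also contain fluconazole at 8 µg/ml as a sub-toxic cotreatment; 0% = median of DMSO wells and 100% = median of geldanamycin control wells; wells of about 8 µL received 7.5 nL stock; the first replicate is given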
# Ecoli rRNA inh OD600 – recorded beside Ecoli rRNA inh, whose call it bears; OD600 change, %; measured here: OD600 growth;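 optical density of the mix in the first replicate; 0 = DMSO median and -100 = no signal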
# Ecoli rRNA inh RFP – recorded beside Ecoli rRNA inh, whose call it bears; RFP signal change, %; measured here: RFP humanized mutant strains;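 first replicate; 0 = DMSO median and -100 = no signal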
# * marks the source's active call; other numbers are inactive results; ? = inconclusive; nt = not tested or not shown. The list is partial; the hit share may differ from the screen's.
SMILES,Beta2AR agonist,Ecoli rRNA inh,Ecoli rRNA inh OD600,Ecoli rRNA inh RFP,Beta cell apopt,ALR H2O2 inh,Bfl-1 A1 inh,T cruzi repl,LANA-H2B inh,Calb FLC
O=C(O)c1ccc(CSc2nnc(-c3ccccc3Cl)n2-c2ccccc2)cc1,-3.1,-18.6,-13.2,-4.7,nt,-2.2,-0.3,-3.2,-2.9,-0.8
Cc1ccc(S(=O)(=O)N2CCC(C(=O)N3CC(C)OC(C)C3)CC2)cc1 (centres undefined),0.7,14.8,14.8,1.1,-0.7,-17.5,1.4,-20.8,-0.2,-1.4
CC(C)C[C@H]1CNC(=O)C(=O)N1C[C@H](C)NC(=O)Cc1ccccc1,1.7,3.8,11.4,-3.0,-1.5,-0.2,0.1,-4.7,4.8,2.1
O=C(CCCNS(=O)(=O)c1cccc2nsnc12)N1CCCCC1,13.9,nt,nt,nt,nt,-11.5,-0.1,-7.7,4.6,-5.0
COc1ccc(C2CC(c3ccccc3OC(C)=O)=NN2C(=O)/C=C/c2ccccc2)cc1 (centres undefined),-14.3,nt,nt,nt,23.0,56.3,0.4,2.3,-3.5,35.9
CCS(=O)(=O)NCc1ccc2[nH]c3c(c2c1)CCCC3,nt,nt,nt,nt,-12.6,-94.7,-0.2,-4.6,1.3,42.9
Fc1cccc(Cl)c1COc1ccc(-c2nnco2)cc1,-10.4,-9.3,-7.8,-1.6,-3.2,-1.9,-0.8,-17.2,-0.8,-6.1
COc1ccccc1S(=O)Cc1ccc(C(=O)NCCc2ccc(Cl)cc2)o1 (centres undefined),-9.5,nt,nt,nt,-2.8,26.6,0.1,-5.1,-1.6,8.1
CCC(CC)c1nnc(NC(=O)C2COc3ccccc3O2)s1 (centres undefined),3.9,nt,nt,nt,-0.8,1.8,-4.5,-11.0,0.5,11.6
COc1cc(N)ccc1Cc1ccc(N)cc1OC,-0.3,nt,nt,nt,-3.0,96.6*,-0.1,8.0,-0.1,-1.5
Cn1c2ccccc2c(=O)c2c(=O)n(Cc3ccco3)c(-c3ccc(C(C)(C)C)cc3)nc21,nt,nt,nt,nt,9.9,19.9,-0.6,8.9,2.0,-2.7
O=C(Nc1ccc(S(=O)(=O)N2CCOCC2)cc1)c1ccc(F)cc1,0.0,12.2,4.1,0.0,-2.4,-1.8,0.4,-32.4,-2.6,4.7
CSc1nn2c(C(F)(F)F)cc(C(F)(F)F)nc2c1C(N)=O,10.8,7.7,6.0,-0.5,3.8,-0.7,0.9,2.3,7.8,-11.8
Cc1noc(C)c1S(=O)(=O)Nc1cc(C(F)(F)F)ccc1N1CCOCC1,3.0,-5.1,6.3,-2.8,7.5,17.2,0.4,-7.1,2.3,-0.2
Cc1cccc(C)c1N=C1C(=O)Nc2ccccc21,-2.0,5.7,1.2,-1.7,0.0,-0.5,-0.2,-9.4,0.5,-2.9
CCOC(=O)C1C(C(=O)Nc2cccc(C(F)(F)F)c2)C1C(=O)NC(C)C (centres undefined),1.9,12.3,6.9,2.3,nt,-22.2,-0.6,-9.4,-4.8,-3.1
Cc1nn(Cc2c(F)c(F)c(F)c(F)c2F)c(C)c1NC(=O)c1ccnn1C,3.5,-2.7,2.0,0.7,3.3,2.9,0.6,-5.0,3.6,-7.9
COc1ccc(OC)c(N/C(C)=C/C(=O)c2ccncc2)c1,-8.3,16.2,-4.0,64.2,-1.3,-17.3,0.4,-4.8,-1.9,-5.5
COc1ccc(NC(=O)CSc2c3c(nc4ccccc24)CCCC3)c(OC)c1,5.5,nt,nt,nt,-7.0,99.6*,0.7,5.2,7.6,10.5
CCN(CC(=O)NCc1ccc(Cl)cc1)C(=O)CCOc1ccccc1C,-1.9,-28.6,-48.8,-5.9,-11.1,-0.2,-0.1,1.1,-12.7,5.2
COc1cc([N+](=O)[O-])ccc1NC(=O)Nc1cnccn1,7.9,9.7,16.6,0.7,0.8,-2.5,-0.2,13.8,0.2,2.2
Cn1nnc2cc(C(=O)NCc3ccco3)ccc21,0.8,nt,nt,nt,-0.8,-0.6,-0.3,3.4,-1.6,0.4
CC[n+]1c(/C=C(\C)SC)sc2ccccc21,11.3,12.9,-3.9,8.7,-0.2,12.8,-0.8,32.8,3.0,5.8
CN1CCc2c(sc(NC(=O)c3ccco3)c2C(N)=O)C1,-8.2,7.2,5.7,1.3,nt,11.1,-0.3,-5.0,-14.8,-3.3
COc1ccc(-n2c(=O)c3ccccc3n(Cc3ccccc3F)c2=O)cc1OC,-0.8,8.0,-6.6,-3.7,-2.7,-4.4,-0.1,2.5,1.5,-7.3
CCCCNCC(=O)Nc1sc(C)c(C)c1C(=O)OCC,-4.6,nt,nt,nt,-1.9,-1.2,0.2,34.9,1.6,-13.6
O=C(CN1CCN(c2cccc(C(F)(F)F)c2)CC1)Nc1cccc(C(F)(F)F)c1,-2.2,nt,nt,nt,-5.6,-3.6,0.0,-3.2,0.6,-4.4
CCC1Oc2ccc(Cl)cc2N(CC(=O)O)C1=O (centres undefined),8.8,10.1,6.4,1.2,-7.4,-2.7,0.2,-1.6,3.3,17.1
COc1cc(OC)nc(Oc2ccccc2C(=O)Oc2ccccc2Cl)n1,-7.2,-22.7*,-8.6*,3.2*,-2.9,1.2,-0.5,2.6,-1.9,4.7
Cc1cc(C)c(S(=O)(=O)C(C)C)c(=O)[nH]1,-1.8,13.0,10.5,2.1,nt,-23.9,-0.2,-18.1,-0.3,8.9
NC(=O)N/N=C/c1ccc(-n2nncc2-c2ccc(Cl)cc2)cc1,5.8,-13.3,-12.8,4.0,6.8,-1.5,0.2,32.5,4.1,5.9
Cc1ccc(S(=O)(=O)N2CCN(S(C)(=O)=O)C2c2ccccc2)cc1 (centres undefined),1.9,nt,nt,nt,-1.7,2.5,0.1,nt,-2.4,1.0
CC(OC(=O)/C=C/c1ccccc1)C(=O)Nc1cccc(C#N)c1 (centres undefined),-4.8,0.7,4.4,-1.9,-3.8,nt,0.8,-6.1,0.5,-4.4
Cc1ccc(NC(=O)c2ccccc2F)nc1,-2.6,nt,nt,nt,nt,-14.8,-4.5,-3.7,-0.2,-9.5
O=C(NNC(=O)c1ccccc1C(F)(F)F)c1csc(N2CCOCC2)n1,-3.4,6.5,6.5,3.0,-20.0,2.4,0.7,-6.6,5.5,-3.8
CCCCC1CCC(c2nc(-c3ccccn3)no2)CC1 (centres undefined),-4.3,nt,nt,nt,-1.5,nt,-2.6,0.6,nt,-7.7
CCc1ccc(N(C(=O)c2csnn2)C(C(=O)NC(C)(C)C)c2cccnc2)cc1 (centres undefined),0.4,1.2,7.5,5.9,-8.7,-3.5,-0.4,nt,1.3,-22.9
CCOc1ccc(C(=O)C(C)OC(=O)CN2C(=O)NC(C)(C)C2=O)cc1 (centres undefined),3.2,3.5,7.7,0.3,nt,nt,-0.4,?,-0.8,-1.8
CN(C)S(=O)(=O)N1CCC(C(=O)O)(c2ccccc2)CC1,3.1,nt,nt,nt,nt,-0.2,0.1,-2.1,1.4,11.6
COc1ccccc1CNC(=O)c1cc(-c2ccccc2)nn1Cc1cc(C)no1,-1.7,-15.4,-8.9,-2.7,-7.8,-4.0,0.6,-2.1,1.4,3.2
O=C(NCCCN1CCN(C2CCCCC2)CC1)Nc1ccccc1C(F)(F)F,-1.1,nt,nt,nt,nt,2.6,0.5,6.4,3.6,-1.7
O=C(CCc1ccccc1)N1CCN(S(=O)(=O)c2cccs2)CC1,6.8,5.3,-3.6,3.7,-3.8,17.6,-0.4,-2.4,-5.2,15.6
COC(=O)C1=C(C)N(CCc2ccccc2)C(=O)/C1=C\c1ccco1,0.9,nt,nt,nt,-1.3,nt,-0.4,-10.7,nt,-2.3
CC1(C)CC(=O)CC2(C1)NCC(c1ccccc1Cl)c1c2[nH]c2ccccc12 (centres undefined),1.2,0.2,4.5,5.9,19.2,-5.6,-0.7,14.5,-2.5,12.4
C=CCN(C(=O)Nc1ccc(OC)cc1)c1nnc(-c2ccncc2)s1,3.1,-10.0,-17.0,-0.4,-4.5,-8.9,0.9,4.1,3.0,26.3
CCN(CC)CCNC(=O)c1c(O)c2c([nH]c1=O)CCCC2,-11.4,9.4,6.0,1.1,-3.7,-2.1,0.7,3.8,2.8,3.8
COc1cccc(NC(=O)c2ccc3c(SCC(=O)O)c4c(nc3c2)CCCC4)c1,1.3,4.6,13.5,-7.5,-5.4,-0.6,0.5,-1.5,0.6,14.3
Cc1ccc(OCC(=O)NCCc2nc3ccccc3[nH]2)c(C)c1,-3.9,-27.4,-28.9,-1.2,-0.2,-4.6,-0.1,28.3,-0.3,4.7
CC(=O)c1cnc(Nc2ccc(C)cc2)s1,3.9,5.5,13.8,2.1,-4.0,nt,-1.5,-19.7,0.4,39.3
Cc1csc(C(=O)O)c1NC(=O)c1cccc([N+](=O)[O-])c1,-0.8,23.6,12.0,-0.2,nt,-1.8,-0.3,-4.7,-2.3,30.6
CC(C)CNC(=O)CSc1nc2scc(-c3ccccc3)c2c(=O)[nH]1,-11.5,0.8,5.1,-7.8,-1.6,2.2,1.2,0.7,2.3,-4.0
CCC1(C(=O)OC)NC(c2ccco2)C2C(=O)N(c3ccc(C)cc3)C(=O)C21 (centres undefined),-5.5,nt,nt,nt,-1.8,nt,-0.1,1.8,3.4,0.4
O=C(c1cccc(Cl)c1)N1CCCC(C(=O)N2CCN(c3ccccc3)CC2)C1 (centres undefined),-1.7,0.5,-4.8,-0.6,-0.6,24.5,-0.4,8.5,0.8,-9.0
CCO[C@@H]1OC(C(=O)N2CCN(C)CC2)=C[C@H](C2CCCCC2)[C@H]1CCCO,2.0,16.2,-5.1,-2.0,-9.0,1.8,-1.9,0.0,4.2,11.9
COc1ccc(CN2CC(C(=O)NCCCN3CCCCC3)CC2=O)cc1 (centres undefined),2.8,5.5,10.6,2.6,-10.1,-1.6,2.0,-10.4,-1.6,-6.2
Cc1cc2cc(CNS(=O)(=O)c3ccc4ccccc4c3)ccc2n1C,14.4,-7.2,5.8,28.8,6.6,-153.5,-0.2,40.5,-0.3,-11.0
CCOc1ccc([N+](=O)[O-])c(N)c1,-3.4,nt,nt,nt,-3.4,-1.0,-1.4,-1.9,-3.5,9.0
CCCCC(=O)NC(c1ccc(Cl)cc1)c1ccc2cccnc2c1O (centres undefined),-0.7,2.5,13.4,-1.5,96.7*,-7.7,-0.3,71.4*,3.3,97.0*
CSC1=C(C#N)C(=O)NC(c2ccc(Cl)cc2)S1 (centres undefined),9.6,-4.0,4.9,4.8,-6.7,20.7,0.1,-23.8,-1.6,3.6
CCOC(=O)N1CCN(CCC(=O)Nc2cc([N+](=O)[O-])ccc2OC)CC1,-9.5,14.9,11.4,3.3,-1.7,-32.0,0.2,-9.1,0.5,18.9
CC(=O)Nc1ccc(C2=NN(c3ccccc3)C(c3ccccc3)C2)cc1 (centres undefined),2.8,-12.9,-13.8,4.3,0.5,95.8*,0.0,33.8,-4.7,-0.7
